High-throughput results from PubChem.
VDR inhibitor = Inhibitors of the vitamin D receptor (VDR): qHTS; AID 504847, 2011; VDR-SRC2-3 peptide fluorescence polarization, 2 h; 400,000 compounds, 0.93% hits; Potency, µM, for inactives: max response, negative = inhibition, most hits filed as inhibitors; active means well fitted inhibition curve with a large enough effect; inconclusive means small, poorly fitted or top-dose-only effect, or another doubt; inactive means no such curve, though single readings can be large or run the other way; further: series mostly up to about 120 µM
Target sequence (P11473 whole entry, looked up): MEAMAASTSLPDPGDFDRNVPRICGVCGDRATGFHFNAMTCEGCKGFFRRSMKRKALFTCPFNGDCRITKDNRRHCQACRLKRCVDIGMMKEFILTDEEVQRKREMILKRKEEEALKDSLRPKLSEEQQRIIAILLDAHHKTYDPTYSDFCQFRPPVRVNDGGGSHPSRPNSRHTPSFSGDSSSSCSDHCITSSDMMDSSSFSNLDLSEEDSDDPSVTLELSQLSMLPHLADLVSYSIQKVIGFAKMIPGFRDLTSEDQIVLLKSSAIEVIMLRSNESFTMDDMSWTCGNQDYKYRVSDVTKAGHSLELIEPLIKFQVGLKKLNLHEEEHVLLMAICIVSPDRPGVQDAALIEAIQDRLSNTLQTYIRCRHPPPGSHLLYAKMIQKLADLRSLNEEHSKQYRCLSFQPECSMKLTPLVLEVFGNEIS
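Two reagent solutions held at 4 deg C in the dark were dispensed, compounds pinned at 23 nl, and the mixture incubated 2 h at room temperature. Read-out: fluorescence polarization of VDR–SRC2-3 peptide binding.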
* hit, by the source's call; & = joins results of further samples. On the % scale 0 is the no-effect control and ±100 the full control effect; potency means the concentration at half of the fitted maximal effect.

Results for COc1ccc(-c2ccc3c(c2)S(=O)(=O)c2cccc(C(=O)NC4CC4)c2C3=O)cc1OC ?
VDR inhibitor: 4%

What do the screens show for `CC1CCCC(C)N1C(=O)COC(=O)c1ccc([N+](=O)[O-])o1` (centres undefined)?
VDR inhibitor: -11%

Results for N#CCCn1cc(CNC2CCC(O)CC2)c2ccccc21 (centres undefined) ?
VDR inhibitor: 0%

How did O=C(NNc1nc(Nc2ccccc2)nc(N2CCOCC2)n1)Nc1ccc(Cl)cc1 do in these assays?
VDR inhibitor: -3%

Results for Cc1cccc(NC(=O)c2ccc3nsnc3c2)c1C ?
VDR inhibitor: -4%

How did CC1CCCCC1NC(=O)CN1CCN(S(=O)(=O)c2ccc(Br)s2)CC1 (centres undefined) do in these assays?
VDR inhibitor: -12%

What do the screens show for `O=C(Cc1ccc(Cl)cc1)NCc1ccccc1Cl`?
VDR inhibitor: 7%

How did COc1cc2c(cc1OC)C1C(C(=O)Nc3ccccc3N3CCN(C)CC3)c3ccccc3C(=O)N1CC2 (centres undefined) do in these assays?
VDR inhibitor: -2%

Results for CCOc1ccccc1-n1c(N)c(C(N)=O)sc1=S ?
VDR inhibitor: -15%

What do the screens show for `Cc1ccc(-c2sc(C(=O)Nc3ccc(Br)cc3)cc2CC(=O)O)cc1`?
VDR inhibitor: -2%

What do the screens show for `CN1CCN(c2ccc(Nc3ccnc4cc(Cl)ccc34)cc2)CC1`?
VDR inhibitor: 19%

How did CSC1=NC(NCCCO)c2c(sc3c2CC(C)(C)OC3)N1 (centres undefined) do in these assays?
VDR inhibitor: -14%

Overlap with the part before: 4 compounds, followed by the next part.
Results for CCOc1ccccc1-n1c(N)c(C(N)=O)sc1=S ?
VDR inhibitor: -15%

What do the screens show for `Cc1ccc(-c2sc(C(=O)Nc3ccc(Br)cc3)cc2CC(=O)O)cc1`?
VDR inhibitor: -2%

What do the screens show for `CN1CCN(c2ccc(Nc3ccnc4cc(Cl)ccc34)cc2)CC1`?
VDR inhibitor: 19%

How did CSC1=NC(NCCCO)c2c(sc3c2CC(C)(C)OC3)N1 (centres undefined) do in these assays?
VDR inhibitor: -14%

Results for O=[N+]([O-])c1cccc(-c2n[nH]c(=S)n2-c2ccccc2)c1 ?
VDR inhibitor: 2%

Results for CCc1ccc(-c2ccc(C(=O)O)cc2)nc1 ?
VDR inhibitor: 2%

Results for CCOC(=O)c1oc2c(c1C)-c1nn(Cc3ccccc3Cl)cc1CC2 ?
VDR inhibitor: -7%

Results for COc1cc(/C=N/Nc2nn3cnnc3c3ccccc23)cc(OC)c1OC ?
VDR inhibitor: 2%

Results for CC(=O)N(Cc1ccc2c(c1)OCO2)C1CC(=O)N(CCc2ccccc2)C1=O (centres undefined) ?
VDR inhibitor: 6%

What do the screens show for `Cc1ccc(-c2ccc(/C=N/N=C3/NC(=O)C(CC(=O)O)S3)o2)c([N+](=O)[O-])c1` (centres undefined)?
VDR inhibitor: inconclusive

What do the screens show for `COC(=O)c1sccc1NC(=O)NC1CCCCC1`?
VDR inhibitor: -25%

What do the screens show for `O=C(c1ccccc1)C1(c2ccccc2)OC1c1ccccc1` (centres undefined)?
VDR inhibitor: 5%

How did FC(F)(F)c1ccccc1-c1cncnc1NCCc1cnc[nH]1 do in these assays?
VDR inhibitor: -3%

Results for Cc1ccc2nc(SCC(=O)N3CCCCC3)nc(=O)n2c1 ?
VDR inhibitor: -2%

Results for COc1cc(O)c(C(CC(=O)N2CCOCC2)c2ccc(N(C)C)cc2)c(OC)c1 (centres undefined) ?
VDR inhibitor: 4%&23%

Results for Cc1ccc(C(=O)NCCc2ccccc2)cc1S(=O)(=O)N1CCOCC1 ?
VDR inhibitor: 6%

Three entries already listed, sorted by molecular weight, lowest first:
Results for COc1cc(/C=N/Nc2nn3cnnc3c3ccccc23)cc(OC)c1OC ?
VDR inhibitor: 2%

What do the screens show for `Cc1ccc(-c2ccc(/C=N/N=C3/NC(=O)C(CC(=O)O)S3)o2)c([N+](=O)[O-])c1` (centres undefined)?
VDR inhibitor: inconclusive

Results for COc1cc(O)c(C(CC(=O)N2CCOCC2)c2ccc(N(C)C)cc2)c(OC)c1 (centres undefined) ?
VDR inhibitor: 4%&23%

(further entries)
How did CCC(C)(C)C1CCC2(CC1)NC(=O)N(CC(=O)N1CCN(S(=O)(=O)c3cc(C)ccc3C)CC1)C2=O (centres undefined) do in these assays?
VDR inhibitor: 9%

Results for Cc1ccc(C)c(NC(=O)C2CCCN2C(=O)OC(C)(C)C)c1 (centres undefined) ?
VDR inhibitor: 2%

Results for CCN1CCCC1CNC(=O)c1cc(NC(C)=O)c(N(C)C)cc1OC (centres undefined) ?
VDR inhibitor: -9%

Results for CNc1ccccc1 ?
VDR inhibitor: -3%

What do the screens show for `CC(=O)/C(C#N)=C1\NC(=O)C(Cc2cc(Cl)ccc2Cl)S1` (centres undefined)?
VDR inhibitor: -12%

How did Fc1ccc(N2CCN(c3ncnc4c3nnn4Cc3ccccc3Cl)CC2)cc1 do in these assays?
VDR inhibitor: -4%

How did O=C(NC1CCc2ccccc21)C1CCN(S(=O)(=O)c2ccc(Cl)cc2)CC1 (centres undefined) do in these assays?
VDR inhibitor: -13%

How did CCC(C)c1c(NS(=O)(=O)c2ccc(C)cc2)o[nH]c1=O (centres undefined) do in these assays?
VDR inhibitor: 0%

How did Cc1cccc(CCNC(=O)c2cccc(NC3=NC4CS(=O)(=O)CC4S3)c2)c1 (centres undefined) do in these assays?
VDR inhibitor: -1%

What do the screens show for `O=C(NCCc1nnc2ccc(NCc3cccnc3)nn12)c1ccccc1F`?
VDR inhibitor: -6%

How did COCc1ccc(C(=O)N2CCCC(C(=O)c3ccc(Cl)cc3C)C2)o1 (centres undefined) do in these assays?
VDR inhibitor: inconclusive

How did COc1ccc(Oc2coc3cc(OC(=O)c4cncc(Br)c4)ccc3c2=O)cc1 do in these assays?
VDR inhibitor: 11%

What do the screens show for `Cc1ccc(CN=C(N)Nc2nc(C)cc(C)n2)cc1`?
VDR inhibitor: -3%

Results for OC(COc1ccccc1)CN(Cc1ccccc1)CC(O)COc1ccccc1 (centres undefined) ?
VDR inhibitor: -14%

Results for CCOc1ccc2[nH]c(=O)c(C(c3nnnn3Cc3ccco3)N3CCN(C)CC3)cc2c1 (centres undefined) ?
VDR inhibitor: 9%

What do the screens show for `CC(C)[C@@H](CC(=O)N[C@@H]1CCCC[C@H]1C(=O)N[C@H](CC(=O)N[C@@H](CCC(=O)O)CC(=O)O)Cc1c[nH]c2ccccc12)NC(=O)C[C@H](CO)NC(=O)[C@@H]1CCCC[C@H]1N`?
VDR inhibitor: 3%

Results for NC1=NN(c2c(Cl)cc(Cl)cc2Cl)C(=O)C1 ?
VDR inhibitor: -14%

Results for O=C(NNS(=O)(=O)c1ccc(CCCl)cc1)C(O)(c1ccccc1)c1ccccc1 ?
VDR inhibitor: -7%

How did Cc1cc(NC(=O)CCN2C(=O)C3C4CCC(C4)C3C2=O)cc(C)c1Br (centres undefined) do in these assays?
VDR inhibitor: 5%

What do the screens show for `CN(C)S(=O)(=O)N(CCN1CCOCC1)Cc1ccccc1F`?
VDR inhibitor: -15%

What do the screens show for `Nc1cccc2c1C(=O)N(CCOc1ccc(F)cc1)C2=O`?
VDR inhibitor: -4%

What do the screens show for `C=C(C)Cn1c(=O)c2c(nc3n2CCCN3Cc2ccccc2)n(C)c1=O`?
VDR inhibitor: -15%

How did O=C(Cn1nc(-c2ccccc2)nc1-c1ccccc1)N1CCOCC1 do in these assays?
VDR inhibitor: 1%

What do the screens show for `Cc1cccc(C(=O)OCC(=O)c2c(N)n(CC(C)C)c(=O)n(C)c2=O)c1[N+](=O)[O-]`?
VDR inhibitor: 5%

How did Cc1ccc(F)cc1NC(=O)c1ccc(NS(=O)(=O)c2ccc(Br)s2)cc1 do in these assays?
VDR inhibitor: 7%

How did COc1ccc(-c2cc(C(F)(F)F)nc(SCC(=O)N3CCCCC3)n2)cc1OC do in these assays?
VDR inhibitor: -21%

How did O=C(NC1CCN(Cc2ccccc2)CC1)c1ccccc1F do in these assays?
VDR inhibitor: 21%

What do the screens show for `Cc1ccc2c(c1)c1c(c(=O)n(Cc3ccccc3)c(=O)n1Cc1ccccc1F)n2C`?
VDR inhibitor: 4%

How did CN(C)CCCNS(=O)(=O)c1cc(Cl)ccc1Cl do in these assays?
VDR inhibitor: -15%

How did O=C(NCCCN1CCCC1)C1CCN(C(=O)c2cc3sccc3n2Cc2ccc(F)cc2)CC1 do in these assays?
VDR inhibitor: 13%

Results for COc1cc(CNC2CCCCCC2)cc(OC)c1OC ?
VDR inhibitor: -7%

What do the screens show for `CC(C)C1CC(O)(C2(O)CCCCC2)ON1` (centres undefined)?
VDR inhibitor: -25%

What do the screens show for `CSc1nc(NCC(C)C)nc(N2CCOCC2)n1`?
VDR inhibitor: -10%

What do the screens show for `O=S(=O)(O)c1ccc(N2N=C(c3ccccc3)CC2c2ccccc2)cc1` (centres undefined)?
VDR inhibitor: -9%

What do the screens show for `COCc1cc(=O)[nH]c(/N=C(\N)Nc2cccc(Cl)c2)n1`?
VDR inhibitor: 4%

How did CCc1ccccc1NC(=O)CN(C)C(=O)c1cc(C2CC2)nn1-c1ccccc1 do in these assays?
VDR inhibitor: 21%

The last six compounds of the part before come first, to join the parts:
Results for COc1cc(CNC2CCCCCC2)cc(OC)c1OC ?
VDR inhibitor: -7%

What do the screens show for `CC(C)C1CC(O)(C2(O)CCCCC2)ON1` (centres undefined)?
VDR inhibitor: -25%

What do the screens show for `CSc1nc(NCC(C)C)nc(N2CCOCC2)n1`?
VDR inhibitor: -10%

What do the screens show for `O=S(=O)(O)c1ccc(N2N=C(c3ccccc3)CC2c2ccccc2)cc1` (centres undefined)?
VDR inhibitor: -9%

What do the screens show for `COCc1cc(=O)[nH]c(/N=C(\N)Nc2cccc(Cl)c2)n1`?
VDR inhibitor: 4%

How did CCc1ccccc1NC(=O)CN(C)C(=O)c1cc(C2CC2)nn1-c1ccccc1 do in these assays?
VDR inhibitor: 21%

How did CCNC(=O)NCCNC(=O)c1cc(OCC(F)(F)F)ccc1OCC(F)(F)F do in these assays?
VDR inhibitor: 6%

Results for COc1ccccc1N1C(=O)C2C3C=CC(C3)C2C1=O (centres undefined) ?
VDR inhibitor: -3%

What do the screens show for `C/C(N)=C(/C#N)C(=O)COc1ncnc2ccc(Br)cc12`?
VDR inhibitor: -6%

How did C=CCN(c1ccccc1)S(=O)(=O)c1cccc(C(=O)Nc2nc3ccccc3[nH]2)c1 do in these assays?
VDR inhibitor: 16%

How did CN1Cc2c(N3CCOCC3)nc3sc(C(=O)c4ccc(Br)cc4)c(N)c3c2CC1(C)C do in these assays?
VDR inhibitor: 11%

Results for CC1COc2ccccc2N1C(=O)c1ccc(Cl)nc1 (centres undefined) ?
VDR inhibitor: -14%

How did O=C(COC(=O)c1c2c(nc3ccccc13)/C(=C\c1ccco1)CC2)NC1CCCC1 do in these assays?
VDR inhibitor: -18%

Results for COc1ccc(Nc2ncc3nc(-c4cccs4)c(=O)n(Cc4cccc(OC)c4)c3n2)cc1 ?
VDR inhibitor: 9%

Results for COc1ccc2[nH]c(=O)c(C(c3nnnn3CC3CCCO3)N3CCc4ccccc4C3)cc2c1 (centres undefined) ?
VDR inhibitor: -8%

Results for COc1ccc(C(=O)NC(=S)Nc2ccc(S(=O)(=O)Nc3cc(OC)nc(OC)n3)cc2)cc1 ?
VDR inhibitor: 15%

How did Cc1ccccc1-c1cc(C(=O)n2cccn2)c2cc(Cl)ccc2n1 do in these assays?
VDR inhibitor: 1%

Results for CC(=O)c1cccc(N(C(=O)Cn2nnc3ccccc32)C(C(=O)NCc2ccccc2)c2ccccn2)c1 (centres undefined) ?
VDR inhibitor: -12%

Results for COC(=O)CCC(=O)OC1(C)C(=O)C=C2C=C(C3CC3)N(CCCOC(C)C)C=C2C1=O (centres undefined) ?
VDR inhibitor: inconclusive

What do the screens show for `Cc1ccc(-n2nc3c(=O)n(CCCC(=O)N4CCC(C(N)=O)CC4)nc(C)c3c2C)cc1`?
VDR inhibitor: 20%

Results for Cc1ccc(S(=O)(=O)N2CCN(CC(=O)Nc3ccccc3Cl)CC2)cc1 ?
VDR inhibitor: 7%

How did Cc1ccc(S(=O)(=O)/N=C(/NC(=S)Nc2c(C)n(C)n(-c3ccccc3)c2=O)c2ccccc2)cc1 do in these assays?
VDR inhibitor: -9%

What do the screens show for `CC(C)C(NC(=O)C1CCCCC1)C(=O)NCc1ccccn1` (centres undefined)?
VDR inhibitor: -11%

How did COc1ccccc1N1CCN(CCCNC(=O)c2nnc(Cc3ccc(F)cc3Cl)o2)CC1 do in these assays?
VDR inhibitor: -8%

How did COc1ccc(OC)c(CC(=O)N2CCc3cc(OC)c(OC)cc3C2)c1 do in these assays?
VDR inhibitor: 8%

How did Cc1cc(C)nc(NNS(=O)(=O)c2ccc(F)c(Cl)c2)n1 do in these assays?
VDR inhibitor: -19%

How did Cc1ccnc2nc(C(=O)NCc3ccccc3)nn12 do in these assays?
VDR inhibitor: -4%

What do the screens show for `CCOC(=O)C1CCCN(C(=O)C2CCN(S(=O)(=O)c3ccc4ccccc4c3)CC2)C1` (centres undefined)?
VDR inhibitor: 2%

What do the screens show for `COc1cc(NC(=O)c2cc(Br)cc(C)c2OC)ccc1NC(=O)C(C)C`?
VDR inhibitor: 1%

How did Cc1cccc(C(=O)Nc2ccn(C)n2)c1 do in these assays?
VDR inhibitor: 5%

How did Cc1nc(SC(C)C(=O)NC2CCCCC2C)c2c(C)c(C)sc2n1 (centres undefined) do in these assays?
VDR inhibitor: -29%

What do the screens show for `Cc1ccc(S(=O)(=O)Nc2ccc3c(c2)C(=O)NC3=O)cc1[N+](=O)[O-]`?
VDR inhibitor: 9%

How did CCN(CC)CCCNC(=S)N(CCO)Cc1cc2cc3c(cc2[nH]c1=O)OCCO3 do in these assays?
VDR inhibitor: -12%

What do the screens show for `O=C1c2ccsc2SCCN1Cc1cccc(Cl)c1`?
VDR inhibitor: 7%

Not all compounds are listed, so the mix of outcomes need not match the whole.
